miR-21 reporter: miR-21 reporter, rising signal | HeLa miR-21 FLuc reporter, luciferase, 48 h | Potency, µM (doses to about 38.3 µM), for inactives: top-dose reporter change, positive = more light | 340,000 tested, under 10 active | AID 2288; active = well fitted rising curve with a large enough effect; inconclusive = small, poorly fitted or top-dose-only effect; inactive = no such curve, though single readings can be large or run the other way;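 note: % of control where 0% means no effect; miR-21 action dims this reporter so a rising signal means less miR-21 action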
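Compounds were titrated across several concentrations (up to approximately 40 uM) and incubated 48 hours with HeLa miR-21-FLuc reporter cells (miR-21 target sequence downstream of FLuc, endogenous miR-21). Readout was firefly luciferase luminescence after lytic detection reagent.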
Rango-impB inh: Rango-importin beta binding inhibition | Rango CFP/YFP FRET sensor + importin beta, 45 min | Potency, µM (top dose mostly 92.2 µM), inactives show at the highest dose inhibition of complex formation | 0.031% of 340,000 active | AID 540263; active = rising FRET ratio curve, often small or poorly fitted; inconclusive = mostly compound fluorescence or quenching in the first reads; inactive = flat curves in all reads;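 note: potency is the fitted concentration of half-maximal effect; 0% = DMSO wells and 100% = buffer wells lacking importin beta; nearly all actives have a fitted effect of over 15% in size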
Target sequence (Q14974 whole entry, looked up): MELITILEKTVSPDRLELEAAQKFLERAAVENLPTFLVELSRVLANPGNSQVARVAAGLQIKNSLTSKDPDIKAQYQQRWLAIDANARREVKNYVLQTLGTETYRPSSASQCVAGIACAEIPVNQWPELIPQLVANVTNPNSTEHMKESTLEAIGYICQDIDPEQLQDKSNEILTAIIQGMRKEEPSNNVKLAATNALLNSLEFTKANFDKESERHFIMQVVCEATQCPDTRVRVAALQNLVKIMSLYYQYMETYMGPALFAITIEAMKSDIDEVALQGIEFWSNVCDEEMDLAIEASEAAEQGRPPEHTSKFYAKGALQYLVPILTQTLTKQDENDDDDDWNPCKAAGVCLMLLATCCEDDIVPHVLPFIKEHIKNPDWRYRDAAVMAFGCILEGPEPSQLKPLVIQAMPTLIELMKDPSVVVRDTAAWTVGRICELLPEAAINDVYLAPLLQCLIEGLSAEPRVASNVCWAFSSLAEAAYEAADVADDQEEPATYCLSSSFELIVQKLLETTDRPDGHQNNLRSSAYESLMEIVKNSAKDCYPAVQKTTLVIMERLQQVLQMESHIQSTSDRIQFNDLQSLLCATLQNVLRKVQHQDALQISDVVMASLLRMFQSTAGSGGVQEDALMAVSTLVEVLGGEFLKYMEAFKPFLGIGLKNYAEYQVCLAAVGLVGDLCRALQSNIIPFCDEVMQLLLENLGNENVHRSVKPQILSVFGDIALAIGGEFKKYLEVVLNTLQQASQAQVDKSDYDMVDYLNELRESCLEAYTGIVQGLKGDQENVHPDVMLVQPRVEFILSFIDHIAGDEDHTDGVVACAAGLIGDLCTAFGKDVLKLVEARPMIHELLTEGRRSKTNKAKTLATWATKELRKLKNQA
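FRET biosensor Rango (snurportin 1 IBB between N-terminal EYFP and C-terminal Cerulean), 50 nM in PBS/1 mM DTT/0.02% Tween-20/0.1% BSA, preincubated 5 min RT with compound; 0.125 microM importin beta added, 45 min RT, CFP/YFP FRET ratio read.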
Rango release inh: prevents RanGTP from dissociating the Rango-importin beta complex; 0.071% of 340,000 active; AID 540253; Biochemical FRET Rango-importin beta, RanGTP-induced dissociation; Potency, µM (top dose mostly 46.1 µM), for the others: top-dose activity change, negative = inhibition; O95149+P62826; active means falling FRET ratio curve, often poorly fitted, with flat reads before Ran was added; inconclusive means other falling curves, or compound fluorescence or quenching; inactive means flat or rising ratio curve;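 note: potency is the fitted concentration of half-maximal effect; % of control where 0% means no effect; nearly all actives have a fitted effect of over 45% in size; -100% = wells without RanGTP and RCC1; the record marks most hits as doubtful in a second field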
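Two FRET readings bracket the reaction: one 5 min after compound meets Rango–importin beta, another 45 min after RanGTP-RCC1 (0.6 uM Ran, 0.2 uM RCC1, 2 mM GTP) is added. Only the second defines inhibition.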
GLA inh pH 4.5: alpha-galactosidase A (human) inhibition, pH 4.5; activity change, negative = inhibition, % at 105 µM; 230,000 tested, under 10 active; purified enzyme, 4-MU-alpha-Gal fluorescence, pH 4.5; AID 1467; P06280; inconclusive = small, poorly fitted or top-dose-only inhibition, or a rising curve; inactive = flat fitted curve, though single readings scatter; no compound was filed as active;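 note: 0% = full activity with enzyme and -100% = basal without enzyme; dose as in the result columns while the protocol names 77 µM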
* hit, by the source's call; ? = inconclusive; · = not tested or not shown. The list is partial, so the mix of outcomes need not match the whole.

Values run as follows: miR-21 reporter	Rango-impB inh	Rango release inh	GLA inh pH 4.5
NNc1nc(-c2ccccc2)cc(-c2ccccc2)n1
  6%	3.4%	15%	1
CCOc1cc(-c2ccc3c(c2)OCO3)cc(=O)c2c(C)oc(C)c12
  -9%	·	·	-2
O=c1cc(O)c(-c2cccc(Cl)c2)c(Cl)[nH]1
  0%	0.9%	3%	7
O=C(C1=C(O)C(=O)N(CCN2CCOCC2)C1c1ccc(Br)cc1)c1cc2ccccc2o1 (stereo not drawn)
  -5%	3.4%	5%	·
C/C(=N\Nc1ccc(C#N)cc1[N+](=O)[O-])c1ccc(C)o1
  1%	0.3%	12%	-2
Cn1c(=NC(=O)CSCC(=O)N2CCOCC2)sc2ccccc21
  -11%	2.2%	-3%	3
CNC(=S)Nc1cc(C(F)(F)F)ccc1Cl
  4%	-2.3%	5%	-3
COC(=O)c1c(C#N)c(N)nc2c1CCCC2
  -3%	?	-16%	8
CCN1CCN(S(=O)(=O)c2ccc(C(=O)Nc3ccccc3)cc2)CC1
  -3%	-1.4%	0%	·
CC(C)CCOCC(=O)Oc1ccccc1C(=O)O
  -7%	-0.4%	-1%	11
Cc1ccc(CNC(=O)c2nnc(CS(=O)(=O)c3ccccc3)o2)cc1
  0%	2.5%	-17%	·
Cn1ccnc1C(O)(c1ccccc1)c1nccn1C
  1%	5.8%	14%	-2
COc1ccc(CCNC(=O)CCOc2ccc(C)cc2)cc1OC
  -8%	5.6%	26%	·
O=C1NC(=O)[C@@H]2C3c4ccccc4C=CN3[C@H](C(=O)c3cccs3)[C@H]12 (stereo partly drawn)
  -32%	·	·	3
CCC(CC)c1nnc(NC(=O)c2ccc(N3CCCCC3)c([N+](=O)[O-])c2)s1
  -2%	-0.8%	22%	6
COc1cccc(NC(=O)CC2C(=O)NCCN2C(=S)Nc2ccc(F)cc2)c1 (stereo not drawn)
  -2%	0.6%	-1%	-4
CC(C)CCNC(=O)CSc1nc2ccccc2c(=O)[nH]1
  1%	-0.3%	0%	5
Cc1c(OCC(=O)N(C)C)ccc2c3c(c(=O)oc12)CCCCC3
  -17%	2.4%	-4%	8
CCOc1ccccc1-c1nc(SCC(=O)O)n[nH]1
  -3%	-0.3%	0%	3
COc1ccc(NC(=O)CCCNC(=O)c2ccc(Cl)cc2)c(OC)c1
  3%	5.1%	4%	·

Whole records from above:
Profile of `COc1ccc(NC(=O)CCCNC(=O)c2ccc(Cl)cc2)c(OC)c1` = miR-21 reporter: 3%; Rango-impB inh: 5.1%; Rango release inh: 4%; GLA inh pH 4.5: ·
Profile of `O=C1NC(=O)[C@@H]2C3c4ccccc4C=CN3[C@H](C(=O)c3cccs3)[C@H]12` (stereo partly drawn) = miR-21 reporter: -32%; Rango-impB inh: ·; Rango release inh: ·; GLA inh pH 4.5: 3
Profile of `CCC(CC)c1nnc(NC(=O)c2ccc(N3CCCCC3)c([N+](=O)[O-])c2)s1` = miR-21 reporter: -2%; Rango-impB inh: -0.8%; Rango release inh: 22%; GLA inh pH 4.5: 6

(continued)
Values run as follows: miR-21 reporter	Rango-impB inh	Rango release inh	GLA inh pH 4.5
O=Cc1sc([O-])nc1-[n+]1ccc2ccccc2c1
  0%	?	-16%	5
COc1ccc(/C(N)=N/OC(=O)CSc2ccc(C)cc2)cc1
  -9%	4.8%	-14%	-3
O=S1(=O)CCN(Cc2ccc(Cl)c(C(F)(F)F)c2)CC1
  4%	-4.5%	12%	-7
COc1ccccc1NC(=O)c1cnc2c(-c3ccccc3)c(C)nn2c1C
  0%	-0.2%	5%	2
CC(C)Cn1c(CCCNC(=O)c2ccc(F)cc2)nc2ccccc21
  -1%	0.8%	-1%	-2
CC(=O)c1cccc(NC(=O)C2CC(=O)N(c3cccc(C)c3C)C2)c1 (stereo not drawn)
  -5%	-0.1%	-7%	6
O=C(NCc1cccnc1)c1cccc(S(=O)(=O)Nc2cccc(Cl)c2)c1
  ·	-0.7%	-1%	·
Cc1cc2c(=O)n(C)c(SCC(=O)Nc3cccc(F)c3)nc2s1
  -5%	-2.4%	-13%	·
CC(=C1C(=O)c2ccccc2C1=O)N1CCN(c2ccccn2)CC1
  -8%	0.5%	1%	1
CS(=O)(=O)Nc1ccc(C(=O)NCCSC2CCCCC2)cc1
  -17%	4.1%	2%	3
O=C(O)c1cccc2sc3cc(Cl)ccc3c(=O)c12
  ·	?	?	·
COC(=O)Cc1ccc(NC(=S)NC(C)(C)C)cc1
  -13%	-1.0%	10%	-1
Cc1nn(-c2cccc(Cl)c2)c(Cl)c1/C=N/NC(=O)c1cccnc1
  0%	-0.9%	13%	2
CCCCSc1ncc(C(=O)OCC)c(N)n1
  -69%	-0.5%	-21%	4
O=C1CC(c2cccc(Cl)c2)CC(O)=C1C=NCCCO (stereo not drawn)
  -2%	-3.7%	-19%	-1
COc1ccc(O)c(C2=Nc3ccccc3N=C(c3ccco3)C2)c1
  -16%	7.0%	11%	10
C(=N\Nc1nc(-c2ccccc2)cs1)/c1cccs1
  -43%	3.1%	6%	-8
CCn1c(C)c(C)c2cc(C(=O)Nc3cccc(Cl)c3)ccc21
  -40%	1.5%	-10%	-5
COc1ccc(Cc2noc(CN3CCNC(=O)CC3)n2)cc1OC
  7%	-1.3%	17%	1
CC(NC(=O)C1CCCCC1)c1ccc2c(c1)OCCO2 (stereo not drawn)
  1%	4.3%	4%	-4

4 entries picked at random from those above:
Values run as follows: miR-21 reporter	Rango-impB inh	Rango release inh	GLA inh pH 4.5
O=c1cc(O)c(-c2cccc(Cl)c2)c(Cl)[nH]1
  0%	0.9%	3%	7
CCC(CC)c1nnc(NC(=O)c2ccc(N3CCCCC3)c([N+](=O)[O-])c2)s1
  -2%	-0.8%	22%	6
COc1ccccc1NC(=O)c1cnc2c(-c3ccccc3)c(C)nn2c1C
  0%	-0.2%	5%	2
CNC(=S)Nc1cc(C(F)(F)F)ccc1Cl
  4%	-2.3%	5%	-3

Additional results.
Values run as follows: miR-21 reporter	Rango-impB inh	Rango release inh	GLA inh pH 4.5
COc1ccc(CCNS(=O)(=O)c2cccs2)cc1
  -11%	-3.0%	27%	-3
NC(=O)c1ccc(NC(=O)COC(=O)c2ccc(Cl)nc2)cc1
  ·	-1.0%	-4%	·
Cc1ccc(S(=O)(=O)CCC(=O)NCc2ccccc2)cc1
  2%	-1.4%	8%	-2
O=C(CC1C(=O)NCCN1C(=O)c1ccc(F)cc1)OCc1ccccc1 (stereo not drawn)
  -1%	0.0%	3%	-27
CCOc1ccccc1NC(=O)COC(=O)c1cccc(-c2ccc(OC(C)=O)cc2)c1
  -1%	0.7%	12%	-18
CC1CC(C)(C)CC2(C1)NC(=O)N(CC(=O)N(C)Cc1nc3ccccc3c(=O)[nH]1)C2=O (stereo not drawn)
  ·	-1.2%	10%	·
COc1ccc(CNC(=O)CN2CCC(C(=O)c3ccc(OC)cc3)CC2)cc1
  10%	-1.7%	-6%	9
CC1CN(C(=S)SCCN2Cc3ccccc3C2=O)CC(C)O1 (stereo not drawn)
  -5%	?	-12%	6
c1ccc2sc(NC3=NCN(CCN4CCOCC4)CN3)nc2c1
  -13%	0.1%	19%	11
Cc1ccc(CNS(=O)(=O)c2ccc(-n3cnnn3)c(C)c2)cc1
  -9%	-2.1%	7%	·
CC1=CC(C)(C)N2C(=O)C3(C(C#N)=C(N)Oc4cc(O)ccc43)c3c(C)c(C)cc1c32 (stereo not drawn)
  ?	-1.5%	10%	-7
CCC(c1nnc(SCC(=O)Nc2cc(C)on2)o1)N(C)C (stereo not drawn)
  ·	0.1%	-10%	·
Fc1ccc(N/N=C(/c2ccccc2)c2ccccn2)cc1
  -12%	3.4%	?	8
CC(=O)Nc1ccc(S(=O)(=O)Nc2ccccc2N2CCOCC2)cc1
  ·	-6.2%	9%	·
COc1ccc(C(=O)c2cc3c(cc2[N+](=O)[O-])OCCO3)cc1
  -15%	-1.5%	-15%	-6
O=C(N/N=C/c1cccs1)c1ccc2ncccc2c1
  -27%	-3.7%	-13%	-17
COc1ccc(C(=O)NC(C)c2nnc(SCC(=O)Nc3nc(C)cs3)n2C)cc1 (stereo not drawn)
  -2%	-0.5%	-4%	3
O=C(CC(CC(=O)c1ccccc1)c1ccccn1)c1ccccc1
  ·	1.1%	3%	·
Cc1ncoc1C(=O)Nc1ccccc1C(N)=O
  -7%	2.8%	-8%	-3
O=[N+]([O-])c1ccc(NN=Cc2cccc([N+](=O)[O-])c2)cc1
  ·	-3.6%	-5%	·

Some of the entries so far, with bars between the fields:
SMILES | miR-21 reporter | Rango-impB inh | Rango release inh | GLA inh pH 4.5
O=C(CC(CC(=O)c1ccccc1)c1ccccn1)c1ccccc1 | · | 1.1% | 3% | ·
COc1ccc(C(=O)c2cc3c(cc2[N+](=O)[O-])OCCO3)cc1 | -15% | -1.5% | -15% | -6

Additional compounds follow.
Values run as follows: miR-21 reporter	Rango-impB inh	Rango release inh	GLA inh pH 4.5
Cc1c(OCC(=O)Nc2cccnc2)ccc2c3c(c(=O)oc12)CCC3
  -12%	1.8%	47%	·
COCCNC(=O)/C(C#N)=C/c1ccc(OC(=O)c2cccs2)c(OC)c1
  0%	-5.4%	15%	-12
N=c1c(C(=O)NCC2CCCO2)cc2c(=O)n3ccccc3nc2n1Cc1ccc(Cl)cc1 (stereo not drawn)
  2%	?	?	·
Nc1cc(=O)[nH]c(SCC(=O)Nc2nnc(-c3ccccc3)s2)n1
  -31%	1.0%	2%	2
O=C(OCCCc1cc2ccccc2c(=O)o1)c1ccc2c(c1)OCO2
  ·	-0.1%	22%	·
CCCc1nnc(NC(=O)CSc2ncn[nH]2)s1
  -10%	-3.7%	22%	1
OCC(O)C1OC(Nc2ccc(Br)cc2)C(O)C1O (stereo not drawn)
  -5%	0.5%	13%	-5
CCN(CC(=O)Nc1ccccc1OC)C(=O)COc1ccc2ccccc2c1
  -9%	-1.7%	3%	-4
c1csc(-c2nn3c(-c4ccncc4)nnc3s2)c1
  -8%	·	·	1
Cc1ccc(S(=O)(=O)N2CCOC2CNC(=O)C(=O)NCCCc2ccccc2)cc1 (stereo not drawn)
  ?	3.7%	-5%	·
CC(=O)NC(CC(=O)Nc1nc(-c2ccc(N(C)S(C)(=O)=O)cc2)cs1)c1ccccc1 (stereo not drawn)
  ?	5.3%	-4%	·
CC(C)(C)NC(=O)C1CC(=O)OC12CCCCC2 (stereo not drawn)
  -2%	0.1%	-16%	1

Bioassay records from PubChem.
